# RanGTP-Imp inh = inhibitors of RanGTP-importin-beta interaction, primary screen, biochemical, FRET, CFP-Ran, YFP-importin-beta, homogeneous. 300,000 compounds, 1.1% hits. inhibition, % (test concentration not listed). AID 2216. cell-free CFP-Ran/YFP-importin-beta FRET ratio;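 active = most replicates above 15%; inconclusive = exactly half above 15%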;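 note: 0% = DMSO wells and 100% = Ran loaded with GDP instead of GTP; wells of about 40 µL received 100 nL stock; the first replicate is given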
# rRNA inh HTS = inhibits bacterial ribosomal RNA function over humanized ribosomes | E. coli WT GFP vs humanized-ribosome RFP mutants, fluorescence, 24 h; hits give low values; DMSO median 0, no signal -100 | GFP signal change (wild-type ribosome), % (no concentration beside the values) | 350,000 compounds, 1.6% hits;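 active = significant combined selectivity score with lowered wild-type GFP, culture density cut under 30%, mutant RFP and density less affected; inactive = any of these conditions unmet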; note: one replicate is shown; some compounds called inactive have numbers as strong as hits
# ALR H2O2 inh = inhibitors of human sulfhydryl oxidase ALR | P55789 | purified ALR, DTT oxidation, H2O2 HRP-luminol luminescence | inhibition, % (test concentration not listed) | 290,000 compounds, 3.8% hits | AID 485317;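 active = mean and each replicate at 75% or more; inconclusive = only one of the two met; inactive = neither met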;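 note: stock transfer was 7.5 nL into about 7.5 µL; 0% = neutral wells and 100% = wells with inactivated enzyme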
# Target sequence (P55789 whole entry, looked up): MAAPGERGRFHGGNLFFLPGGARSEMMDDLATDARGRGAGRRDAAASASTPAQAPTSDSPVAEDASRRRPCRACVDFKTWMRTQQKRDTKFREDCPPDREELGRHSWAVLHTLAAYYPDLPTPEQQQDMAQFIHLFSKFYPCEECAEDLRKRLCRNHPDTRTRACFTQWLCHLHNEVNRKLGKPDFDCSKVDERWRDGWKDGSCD
# FGF22 binding = FGF22 (human) thermal shift binding | Q9HCT0 | recombinant FGF22 thermal shift, SYPRO orange fluorescence; percent of sucrose octasulfate shift, DMSO zero | calls only at 9.99 µM | 340,000 compounds, 1.5% hits | AID 651658;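 active = melting point raised past a set limit in the mean and every replicate; inconclusive = no clear call; three in four hits are not shown here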
# Target sequence (Q9HCT0 whole entry, looked up): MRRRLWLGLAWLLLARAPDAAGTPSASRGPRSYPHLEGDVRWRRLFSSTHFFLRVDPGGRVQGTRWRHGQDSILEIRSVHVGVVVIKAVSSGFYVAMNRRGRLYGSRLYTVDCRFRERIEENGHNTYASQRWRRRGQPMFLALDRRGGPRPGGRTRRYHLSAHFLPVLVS
# Calb FLC = affects C. albicans growth with fluconazole | C. albicans CaCi-2 (fluconazole-resistant clinical isolate) + fluconazole, Alamar Blue growth, 48 h | growth inhibition, % (test concentration not listed) | 300,000 compounds, 0.57% hits;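 active = most replicates above 75%; inconclusive = exactly half above 75%; inactive = most below 75%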;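 note: all wells also contain fluconazole at 8 µg/ml as a sub-toxic cotreatment; 0% = median of DMSO wells and 100% = median of geldanamycin control wells; wells of about 8 µL received 7.5 nL stock; the first replicate is given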
# AF4-AF9 inh = blocks AF4 peptide binding to human AF9 | AlphaScreen, biotin-AF4 peptide binding to FLAG-AF9 | inhibition, % at 10 µM | 350,000 compounds, 0.47% hits;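 active = every replicate reaching a set inhibition limit, whatever the replicate mean, cut at about 25% in these data; inconclusive = mean inhibition reaches that limit but some replicates miss it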;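 note: 0% = plate neutral control median and 100% = total signal loss; the record names both 10 and 1 µM as test concentration; the first replicate is given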
# Target sequence (P42568 whole entry, looked up): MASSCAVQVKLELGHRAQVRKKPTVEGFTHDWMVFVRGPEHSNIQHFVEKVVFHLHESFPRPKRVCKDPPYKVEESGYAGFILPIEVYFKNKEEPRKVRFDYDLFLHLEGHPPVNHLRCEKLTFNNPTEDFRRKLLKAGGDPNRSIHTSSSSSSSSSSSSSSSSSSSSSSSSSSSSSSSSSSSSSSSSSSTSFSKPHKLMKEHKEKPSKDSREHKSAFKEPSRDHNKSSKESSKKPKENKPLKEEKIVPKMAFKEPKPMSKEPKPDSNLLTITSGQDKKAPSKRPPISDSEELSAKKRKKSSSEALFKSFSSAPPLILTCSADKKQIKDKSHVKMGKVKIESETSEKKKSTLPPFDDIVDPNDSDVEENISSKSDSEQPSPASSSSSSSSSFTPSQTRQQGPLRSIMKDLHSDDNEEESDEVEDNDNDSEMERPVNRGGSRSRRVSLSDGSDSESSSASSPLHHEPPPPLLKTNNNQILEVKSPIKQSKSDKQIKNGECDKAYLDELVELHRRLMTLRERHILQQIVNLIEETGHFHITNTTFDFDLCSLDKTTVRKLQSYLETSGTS
# Beta cell apopt = blocks beta cell apoptosis; INS-1E cytokine-induced death, ATP luminescence, 48 h; percent of positive-control rescue, neutral wells zero; protection from apoptosis, % (test concentration not listed); 300,000 compounds, 0.8% hits;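 active = all replicates at 75% or more, or half of them and the mean; inconclusive = half reach 75% but not the mean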;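 note: 0% = cytokine-treated negative control wells and 100% = positive control rescue; higher means more ATP so stronger rescue from cytokine killing; wells of about 40 µL received 100 nL stock; the first replicate is given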
# T cruzi repl = T. cruzi replication inhibition; 300,000 compounds, 1.4% hits; inhibition, % (no concentration beside the values); T. cruzi beta-gal in NIH3T3, luminescence, 90 h;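 active = mean inhibition across valid replicates above about 55%, limit read from the data; inconclusive = mean below that limit but half or more replicates reach it; inactive = mean below it, under half of replicates reach it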;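 note: signal also drops with host cell toxicity which is not excluded here; 0% = plate median of DMSO wells and 100% = zero luminescence signal; higher percent means less beta-gal luminescence so fewer parasites; stock transfer was 50 nL into about 50 µL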
# rRNA inh HTS OD600 = also measured in rRNA inh HTS; calls as there; OD600 change, %; measured here: OD600 growth;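 optical density of the mix in the first replicate; 0 = DMSO median and -100 = no signal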
# rRNA inh HTS RFP = also measured in rRNA inh HTS; calls as there; RFP signal change, %; measured here: RFP humanized mutant strains;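 first replicate; 0 = DMSO median and -100 = no signal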
# Active calls of the source: *; i = inactive; ? = inconclusive; . = no result given; + = active, no number. A portion of the library; count on the stated rates, not on these rows.
Structure,rRNA inh HTS,Beta cell apopt,T cruzi repl,Calb FLC,RanGTP-Imp inh,ALR H2O2 inh,FGF22 binding,rRNA inh HTS RFP,AF4-AF9 inh,rRNA inh HTS OD600
CCCc1cc(=O)[nH]c(SCc2nc3ccccc3o2)n1,-9,-4,-7,-3,0.8,10,i,1.4,-8.9,-10
CCOC(=O)N/N=C/c1cc(C)n(-c2cccc3ccccc23)c1C,-1,7,-21,-7,-0.5,-9,i,-4.3,12,7
C/C(=N\NC(=O)CNC(=O)c1ccncc1)c1ccc(C)cc1,12,.,-4,0,-6.7,-4,+,2.4,-0.2,11
O=C(c1ccccc1)N1CCN(S(=O)(=O)N2CCCCCC2)CC1,2,0,0,11,-0.2,.,i,0.0,-0.6,4
CC(C)Oc1ccc(C(=O)NC2(C(F)(F)F)NC(=O)N(CCCc3ccccc3)C2=O)cc1 (stereo not drawn),-19,2,-6,-6,1.5,-4,i,-5.4,-20,-19
O=C(CSCc1cccc(CSCC(=O)Nc2ccccc2)n1)Nc1ccccc1,.,2,3,111*,2.3,-29,.,.,.,.
COc1cc(NC(=O)c2ccc(-c3ccc(Br)cc3)o2)ccc1NC(=O)C(C)C,.,3,43,33,-2.1,-5,.,.,.,.
COc1cccc(C(=O)Nc2ccc(N3CCCC3)cc2)c1,.,29,23,2,?,100*,.,.,.,.
Cc1ccc(S(=O)(=O)N2CCN(C(=O)Cn3cnc4c3c(=O)n(C)c(=O)n4C)CC2)cc1C,2,-2,.,.,.,-6,i,-0.9,8.9,11
O=C1CCN(Cc2cccnc2)CCN1[C@H](CO)Cc1ccccc1,8,-5,-7,-4,3.1,4,i,0.8,-2.5,7
Cc1csc(=O)n1CC(=O)OCc1nnc(-c2ccc([N+](=O)[O-])cc2)o1,6,-1,.,.,.,-13,i,-4.8,1.1,15
O=S(=O)(N/N=C/c1ccc(Cl)cc1)c1ccc(Cc2ncc(C(F)(F)F)cc2Cl)s1,.,-9,-3,-3,-2.7,1,.,.,.,.
CCCC(=O)NC(Nc1ccccc1F)C(Cl)(Cl)Cl (stereo not drawn),.,4,23,-2,-0.2,.,.,.,.,.
COC(=O)c1cc(OC)c(OC)cc1NC(=O)Nc1cccc(C(C)=O)c1,21,-1,-13,-13,2.0,-8,i,-0.7,0.3,17
COc1cc2c(cc1OC)-c1cc(N3CCc4ccccc43)nc(=O)n1CC2,6,2,-6,0,-3.0,-2,i,1.2,-1.8,2
O=C1CN(C(=O)c2cccc(Br)c2)c2ccccc2N1,-4,1,-13,8,?,.,i,2.1,-0.9,1
CC(=O)OC1C(N2CCCCC2)c2c(ccc(/C=C/C(=O)N3CCCCC3)c2O)OC1(C)C (stereo not drawn),2,1,5,29,2.0,-6,i,0.0,-0.4,7
c1ccc(CN2CCOCC2)cc1,.,-1,-7,0,?,.,.,.,.,.
O=C(CN1CCCCC1)N1c2ccccc2CCc2ccccc21,.,-1,13,-28,-3.8,13,.,.,.,.
Cc1ccc(C(=O)NC2CC(=O)N(c3ccc4c(c3)OCCO4)C2)cc1[N+](=O)[O-] (stereo not drawn),3,7,4,3,3.5,.,i,-2.0,-0.1,4

Structure,rRNA inh HTS,Beta cell apopt,T cruzi repl,Calb FLC,RanGTP-Imp inh,ALR H2O2 inh,FGF22 binding,rRNA inh HTS RFP,AF4-AF9 inh,rRNA inh HTS OD600
Cc1ccc(S(=O)(=O)Nc2ccc(N3CCOCC3)nc2)cc1,29,-2,3,-12,?,32,i,27,-0.3,-1
Cc1ccc(CSCC(=O)NCc2ccco2)cc1,-9,-1,-6,17,3.1,-4,i,2.0,-1.7,-11
Cc1ccc(S(=O)(=O)N2CC(O)C2)cc1,6,-6,-17,-3,-3.7,-5,i,12,-3.5,-7
CC(=O)N/C(=C/c1ccc2c(c1)OCO2)C(=O)Nc1ccccc1,13,-10,-8,-29,2.3,-10,i,-0.5,-1.6,11
CCCCNC(=O)C(Sc1ccccc1)c1ccccc1 (stereo not drawn),-8,-3,4,14,1.9,-1,i,-10,2.7,-17
CCOc1cc(/C=N/NC(=O)c2cc(C)[nH]n2)ccc1OC(=O)c1ccc([N+](=O)[O-])cc1,.,-1,-23,-5,-3.4,-7,.,.,.,.
CN(C(=O)COC(=O)C1=COCCO1)c1c(N)n(Cc2ccccc2)c(=O)[nH]c1=O,-1,-5,-2,6,1.1,5,i,-2.4,-1.2,-3
COC(=O)c1cc(OC(=O)CCc2ccc(OC)c(OC)c2)cc(C(=O)OC)c1,-3,-5,0,0,0.3,.,i,0.3,-16,-8
CSCC[C@H](NC(=O)Nc1ccc(C)cc1)C(=O)O,7,3,-12,-3,?,-1,.,-2.6,.,11
O=C(OCc1cncs1)c1cccs1,9,-7,-9,35,-9.4,-1,i,2.0,-0.2,6
CCO[C@H]1OC(C(=O)N2CCN(Cc3ccc4c(c3)OCO4)CC2)=C[C@@H](c2csc3ccccc23)[C@@H]1CCCO,-8,85*,17,21,1.2,-5,i,7.0,7.9,-19
CC(C)(C)C(=O)Nc1sc2c(c1C(=O)Nc1ccccn1)CCCC2,13,4,-5,-5,2.9,10,i,4.5,-0.6,6
Cc1ccc(C(O)(CCN2CCCCC2)c2ccccc2)cc1 (stereo not drawn),9,-3,10,-3,-0.5,-12,i,0.4,-0.1,-4
CC1(C)CC2(CCO1)C(Nc1ccccc1)=NC(=S)N2CC(N)=O (stereo not drawn),18,-1,-10,-18,-0.7,-8,i,2.9,0.3,12
O=C(CSc1nc(=O)n(CCCN2CCOCC2)c2c1CCCC2)Nc1ccc(F)cc1F,5,.,-5,-3,0.2,-6,i,-2.1,-22,1
CCCC(=O)NC(=S)Nc1ccc(NC(=O)c2cccs2)cc1,.,0,1,-16,1.0,-6,.,.,.,.
O=C(N/C(=C/c1cccnc1)C(=O)N1CCCCCC1)c1cccc(Br)c1,.,-1,-10,45,2.9,0,i,.,1.3,.
COc1ccc(NC(=O)CNS(=O)(=O)c2ccccc2)cc1Cl,-2,-7,-9,5,1.3,-9,.,-3.6,5.8,2
CC(=O)Nc1ccc(S(=O)(=O)NC2CC2)cc1,11,-2,-8,6,-2.0,-6,i,4.2,-4.5,13
O=C(Nc1ccc([N+](=O)[O-])cc1)N1CCN(C(=O)C2CCCO2)CC1 (stereo not drawn),5,0,-13,1,1.1,2,i,0.5,-1.5,14

Structure,rRNA inh HTS,Beta cell apopt,T cruzi repl,Calb FLC,RanGTP-Imp inh,ALR H2O2 inh,FGF22 binding,rRNA inh HTS RFP,AF4-AF9 inh,rRNA inh HTS OD600
O=C1C=C(c2cccc(Cl)c2O)C[C@@H](c2ccc3c(c2)OCO3)C1,-26,-1,.,.,.,22,i,-1.6,1.2,-56
CCOC(=O)c1c(S(=O)(=O)NCC2CCN(CCc3cccs3)CC2)c(C)n(C)c1C,4,-9,0,-15,-4.6,-7,i,-2.9,-11,4
CC(C)N1C(=S)N(Cc2ccco2)C(=O)C1CC(=O)Nc1ccccc1 (stereo not drawn),-6,.,-10,-5,2.3,6,i,4.6,0.1,-5
CN(C(=O)CSc1nnc(-c2ccccc2)o1)c1c(N)n(Cc2ccccc2)c(=O)[nH]c1=O,6,4,0,-2,7.0,-4,i,1.4,-2.0,5
O=C(N/N=C/c1ccccn1)c1ccc(NC(=O)c2ccc(F)cc2)cc1,-10,4,-18,-12,-1.5,26,i,-0.6,2.2,3
CSC1=NCCN1C(=O)COc1ccccc1,4,4,-2,-7,-0.7,0,i,-0.4,-1.3,1
CCOc1ccc(/C=C/C(O)=C2/C(=O)NC3(C)CC2c2ccccc2O3)cc1OC (stereo not drawn),9,-8,0,-2,-2.0,.,i,5.6,-2.1,-3
c1ccc(-c2nnc(-c3ccccc3)o2)cc1,.,2,-1,-2,3.3,.,.,.,.,.
CN(CCCN1CCOCC1)C(=O)c1cc(COc2cccc(C(F)(F)F)c2)on1,5,-8,13,7,3.8,0,i,0.9,0.5,9
O=C(CSc1nnc(-c2ccc(O)cc2)o1)Nc1cccc(O)c1,-2,3,8,-11,4.3,.,i,1.2,-1.7,-8
COc1ccc(-c2cc(=O)oc3cc(OCC(=O)NCC(O)c4ccccc4)ccc23)cc1 (stereo not drawn),.,-6,-11,9,6.8,-19,i,.,-2.7,.
CCC(=O)c1ccc(OCCSc2ncccn2)cc1,.,-1,-2,-3,6.2,-2,.,.,.,.
Cc1ccc(N2C(=O)Nc3ccc(Br)cc3C2(O)C(=O)NCCN(C)C)cc1C (stereo not drawn),3,-6,-2,0,3.0,-11,i,2.8,0.2,15
C=CCN1c2ccccc2C(=O)CS1(=O)=O,-12,2,.,.,.,4,i,0.0,.,-7
COC(=O)CCCCCN1C(=O)NC(c2ccccc2)C(C(=O)OCc2ccccc2)=C1C (stereo not drawn),0,-1,11,-2,-0.8,-15,i,-5.1,-11,9
Fc1ccccc1CSc1ncn[nH]1,.,-12,-5,?,0.8,-1,.,.,.,.
O=C(O)c1ccnc(Cl)c1,.,-2,-1,17,0.8,.,.,.,.,.
Cc1cc(C(=O)Oc2ccccc2C(=O)O)c(C)o1,.,-1,-22,-12,?,-1,.,.,.,.
O=C(NCCc1nccs1)C1CCC(=O)N(Cc2cccc(C(F)(F)F)c2)C1 (stereo not drawn),-5,0,0,-2,1.5,-4,i,-0.5,0.7,4
COC(=O)c1cc(CNC(=O)c2ccc(O)c(Cl)c2)ccc1OC,0,-4,-8,-1,0.2,-30,i,-4.7,0.6,12

Structure,rRNA inh HTS,Beta cell apopt,T cruzi repl,Calb FLC,RanGTP-Imp inh,ALR H2O2 inh,FGF22 binding,rRNA inh HTS RFP,AF4-AF9 inh,rRNA inh HTS OD600
O=C(COC(=O)COc1ccccc1)Nc1ccc2c(c1)OCCO2,10,-4,.,.,.,1,i,-1.1,0.4,11
O=[N+]([O-])c1ccccc1NCc1c(O)ccc2ccccc12,-22*,4,-3,8,-7.5,.,i,-2.5*,8.9,-0.4*
CN(c1ccc(C(=O)N2CCOCC2)cc1[N+](=O)[O-])C1CCCCC1,.,4,.,11,2.6,-3,.,.,.,.
CCCC(=O)N1CCN(c2ccc(NC(=O)c3ccco3)cc2)CC1,.,8,-15,-10,1.8,2,.,.,.,.
O=C(C[n+]1ccccc1)Nc1cc(C(F)(F)F)ccc1Cl,.,2,-13,-1,-3.5,.,.,.,.,.
CCc1c(C)c2ccc(OC3CCCCC3=O)cc2oc1=O (stereo not drawn),2,6,11,0,5.8,3,i,1.1,-0.1,-3
CCn1cc(C(=O)NCc2ccc(C)o2)c2cc(OC)c(OC)cc2c1=O,.,-3,23,4,6.5,11,.,.,.,.
Cc1ccc(S(=O)(=O)N2CCN(C(=O)c3ccc(Cl)nc3)CC2)cc1,-3,-2,-16,-9,-2.4,-2,i,-1.1,1.8,-9
CCc1ccc(N2CC(C)Cn3c2nc2c3c(=O)[nH]c(=O)n2C)cc1 (stereo not drawn),4,7,-19,0,5.6,3,i,0.5,1.6,9
CCOc1ccc(/C=N/Nc2nc(N3CCCC3)nc(N3CCCC3)n2)cc1OC,15,2,17,-5,-5.3,-26,i,1.6,3.8,11
COC(=O)c1cc(S(=O)(=O)N2CCN(c3ccc(F)cc3)CC2)c[nH]1,6,3,-2,3,5.1,-3,i,-1.1,0.0,9

# High-throughput results: PubChem, Broad Institute
